Screening data as filed in PubChem BioAssay.
gsp antagonist: gsp mutant antagonism; gsp-mutant cells, cAMP HTRF, 30 min; control for the full effect not named in the record; Potency, µM (titrated, usually from 76.9 µM), inactives show top-dose activity change, negative = inhibition, actives largely listed as inhibitors; 0.4% of 340,000 active; AID 624288; active = falling curve of any shape with a large fitted effect; inconclusive = falling curve, mostly with a smaller effect; inactive = flat or rising curve; cell line not stated here;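 note: intracellular cAMP measured with PDE inhibitor Ro 20-1724 present during compound exposure; potency is the fitted concentration of half-maximal effect; % is set by controls: 0 for no effect and ±100 for the full control effect; nearly all actives have a fitted effect of over 65% in size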
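HTRF cAMP read-out (cAMP-d2 plus anti-cAMP antibody-K in lysis buffer, 30 min RT). Before lysis, cells are exposed to compounds with […] for 30 min at 37C in DPBS containing Ca/Mg, BSA and Tween 20.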
gsp agonist: activates gsp, the McCune-Albright syndrome mutation; Potency, µM (doses to about 76.9 µM), without a hit: at the highest dose activation (cAMP increase), usual class: activators; gsp mutant cells, cAMP HTRF, 30 min; control for the full effect not named in the record; AID 624287; 0.13% of 340,000 active; active = well fitted activation curve with a large enough effect; inconclusive = small, poorly fitted or top-dose-only effect, or another doubt; inactive = no such curve, though single readings can be large or run the other way; cell line not stated here;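 note: phosphodiesterase inhibitor Ro 20-1724 added with compounds to block cAMP breakdown; potency is the fitted concentration of half-maximal effect; nearly all actives have a fitted effect of over 60% in size; about a fifth of the inactives were tested at one dose only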
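Cells in DMEM/10% FBS with G418 were pretreated with compounds in DMSO plus […] (300 uM stock) for 30 min at 37C. cAMP was measured by HTRF (cAMP-d2 plus anti-cAMP antibody-K) after 30 min at room temperature.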
PINK1 expr mod: changes PINK1 expression; Potency, µM (series often up to 76.6 µM), for the others: top-dose activation (PINK1 increase), most hits filed as activators; AID 624263; 0.2% of 410,000 active; PINK1 immunofluorescence, high-content cytometry, 24 h; active = well fitted activation curve with a large enough effect; inconclusive = small, poorly fitted or top-dose-only effect; inactive = flat fitted curve, though single readings scatter; cell line not stated here;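 note: potency is the fitted concentration of half-maximal effect; % of control where 0% means no effect; nearly all actives have a fitted effect of over 65% in size; a mitochondrial uncoupler was the plate control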
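Decision-based qHTS: stable cells, 24 h exposure to five compound concentrations, CCCP as control. Fixed cells stained for PINK1 plus nuclear, mitochondrial and cell markers, cytometer read.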
D2 ag: agonists of human D2 dopamine receptor (beta-arrestin). AID 624465. activation, % (concentration not given with the values). 0.084% of 360,000 active. DiscoveRx PathHunter D2 beta-arrestin, luminescence, 90 min; 100% = 57 uM dopamine signal. P14416; in the data active = activation above about 40%; inconclusive = about 15% to 40%; inactive = below about 15%; note: compound concentration not given in the record; the text of the record calls up to 30% inactive
Target sequence (P14416 whole entry, looked up): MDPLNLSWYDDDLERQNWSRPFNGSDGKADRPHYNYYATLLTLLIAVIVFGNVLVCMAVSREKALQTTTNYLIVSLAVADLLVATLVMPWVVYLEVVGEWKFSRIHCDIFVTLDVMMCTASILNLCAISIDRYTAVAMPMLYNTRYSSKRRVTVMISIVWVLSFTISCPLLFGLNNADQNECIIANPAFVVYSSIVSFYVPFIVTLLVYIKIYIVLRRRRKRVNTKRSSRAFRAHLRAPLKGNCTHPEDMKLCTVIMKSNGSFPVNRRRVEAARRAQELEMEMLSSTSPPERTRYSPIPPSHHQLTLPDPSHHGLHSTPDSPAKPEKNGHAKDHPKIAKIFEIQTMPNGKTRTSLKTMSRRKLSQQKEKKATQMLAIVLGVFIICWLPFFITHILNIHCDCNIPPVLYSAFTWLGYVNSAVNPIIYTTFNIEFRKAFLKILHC
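Agonist mode: compounds alone added to overnight-plated D2 PathHunter cells for 90 min at 37 C, with 57 uM final dopamine (EC100) defining full response. Beta-arrestin recruitment detected by chemiluminescent reagent, read after 1 h at ambient temperature.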
ClpP mod: qHTS Assay for Activators of ClpP. ATP-dependent Clp protease proteolytic subunit (Bacillus subtilis (strain 168)), P80244. purified B. subtilis ClpP, FRET peptide cleavage, 20 min. Potency, µM (top dose mostly 57.5 µM), for inactives: top-dose activity change, negative = active. 1.9% of 340,000 active. AID 651965, 2013; active = well fitted falling curve with a large enough effect; inconclusive = small, poorly fitted or top-dose-only effect; inactive = no such curve, though single readings can be large or run the other way; note: potency is the fitted concentration of half-maximal effect; the source files actives as falling curves though it sought activators and does not explain the sign; nearly all actives have a fitted effect of over 65% in size; many hits overshoot -100%
Target sequence (P80244 whole entry, looked up): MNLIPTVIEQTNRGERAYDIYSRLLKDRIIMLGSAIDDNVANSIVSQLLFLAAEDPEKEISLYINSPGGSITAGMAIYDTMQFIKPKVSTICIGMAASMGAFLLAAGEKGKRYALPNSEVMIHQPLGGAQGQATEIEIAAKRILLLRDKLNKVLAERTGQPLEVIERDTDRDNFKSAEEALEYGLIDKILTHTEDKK
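Purified B. subtilis ClpP, 10 microg/mL final in Tris/HCl pH8 with KCl, BSA, glycerol and Tween-20, cleaved an Abz/nitrotyrosine-quenched decapeptide. Fluorescence (ex 320, em 430) was read at 0 and 20 min at room temperature. Delta was normalized to 5.8 microM ADEP and DMSO/no-enzyme controls.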
Sfp inh: blocks B. subtilis Sfp PPTase activity; 3.5% of 310,000 active; Biochemical Sfp PPTase activity, qHTS; Potency, µM, for the others: max response, negative = inhibition, actives largely listed as inhibitors; active = well fitted inhibition curve with a large enough effect; inconclusive = small, poorly fitted or top-dose-only effect, or another doubt; inactive = no such curve, though single readings can be large or run the other way;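 note: the enzyme is Sfp with the accession as filed and its product quenches rhodamine fluorescence; potency is the fitted concentration of half-maximal effect; 0% = enzyme reaction without inhibitor and -100% = no enzyme wells; top concentration of the series not given in the record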
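Reaction rates are the 30-min fluorescence difference (ex 525, em 598 nm) in wells containing 15 nM Sfp, 5 uM rhodamine-CoA and 12.5 uM BHQ-2-YbbR at pH 7.6 with 10 mM MgCl2.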
Menin-MLL FL inh: inhibitors of human menin-MLL interaction, wild-type MLL peptide | 290,000 tested, under 10 active | FP activity change, % at 61.4 µM | Fluorescence polarization, fluorescein-MLL peptide displacement from menin | AID 1766; inconclusive = falling polarisation curve, or a change in total fluorescence; inactive = total fluorescence flat and polarisation flat or rising; no compound was filed as active; the % refers to the polarisation; negative = inhibition;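 note: % of control where 0% means no effect; inhibitors lower the polarisation; unlabelled MLL peptide was the positive control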
The depositor's hits bear a star; ? = inconclusive; . = not tested or not shown; [ ] = remark or other dose.

SMILES	gsp antagonist	gsp agonist	PINK1 expr mod	D2 ag	ClpP mod	Sfp inh	Menin-MLL FL inh
CCOc1ccccc1NC(=O)N1CCCC(c2nc3c(nnn3Cc3ccc(C)cc3)c(=O)[nH]2)C1 (stereo unspecified)	3%	22%	2.9%[38.3 µM]	0.4	1.2%	-9%	?
COc1ccc(C(=O)C[n+]2ccc(N)c(C)c2C)cc1	9%	-3%[15.4 µM]	?	0.2	.	-10%	-1.3
CCOC(=O)C(NC(=O)c1ccccc1F)(Nc1cc(C)on1)C(F)(F)F (stereo unspecified)	6%	-48%[inhibitor]	0.9%	-1.8	-0.6%	11%	1.0
CCOC(=O)c1c(NC(=O)c2ccco2)sc2c1CCCCC2	7%	-10%	?	-2.2	35µM*	?	4.1
Cc1cccc(COC(=O)Nc2ccc(NC(=O)c3ccccc3Cl)cc2)c1	-2%	1%	11%	1.2	1.1%	9%	0.2
C=CCSc1nnc(COc2ccc(=O)n(-c3ccccc3)n2)n1CC	-5%	13%[15.4 µM]	3.5%	-1.6	.	12%	1.0
COc1ccc(CC(=O)NC(C)c2ccc(Cl)c(Cl)c2)cc1S(=O)(=O)N1CCOCC1 (stereo unspecified)	0%	-35%[inhibitor]	-1.8%	-3.3	-10.0%	.	.
Cc1ccccc1-c1nc(-c2ccccn2)no1	8%	2%	-2.2%	-0.9	.	8%	-0.5
COc1ccc(N(CC(=O)N2CCN(c3ccc(Cl)cc3)CC2)S(=O)(=O)c2c(C)n[nH]c2C)cc1	-22%	-26%	-1.8%	-0.8	.	2%	1.6
COc1ccc(NS(=O)(=O)c2csc(C(N)=O)c2)cc1OC	9%	27%[15.4 µM]	-1.1%	-3.3	-2.0%	10%	1.6
CCCCn1c(N)c(N(CCOC)C(=O)c2c(CC)noc2C)c(=O)[nH]c1=O	6%	6%	2.9%	-3.2	-13%	.	.
Cc1nnc(SCC2=C(C(=O)O)N3C(=O)C(NC(=O)C(C)n4nc(C(F)(F)F)cc4C)C3SC2)s1 (stereo unspecified)	7%	?	0.8%	4.5	.	?	13
CC1CCc2sc(C(=O)N3CCN(c4ncccn4)CC3)cc2C1 (stereo unspecified)	10%	-5%	4.4%	-0.5	-3.8%	.	.
COc1ccc(-c2cc(-c3nc4ccccn4c3NCc3ccccc3)ccc2OC)cc1	?	.	1.2%	?	3.4%	.	.
Cc1ccc(CNC(=O)CNS(=O)(=O)c2ccc(Br)s2)cc1	9%	-2%[15.4 µM]	1.3%	4.9	.	20%	-0.4
O=C(NCc1ccccc1)c1cc(C2CCCCN2C(=O)c2ccccc2)on1 (stereo unspecified)	.	.	2.9%	-3.3	0.7%	.	.
Cc1ccc(C)c(S(=O)(=O)N(C)C2CCS(=O)(=O)C2)c1 (stereo unspecified)	6%	19%[15.4 µM]	-2.2%	-2.5	.	.	.
COc1ccc(NC(=O)c2sc3nc(C)nc(N4CCN(c5ccccn5)CC4)c3c2C)cc1Cl	-19%	?	4.8%	3.9	?	-5%	-2.7
O=C(O)CCCC(=O)Nc1ccc(N2CCCC2)cc1	-21%	-3%	-1.0%	5.1	-3.0%	10%	0.0
COc1ccc(OC)c(NS(=O)(=O)c2ccc3c(c2)n(C)c(=O)n3C)c1	-9%	3%	0.6%	1.6	0.5%	2%	0.4

Next part; it opens with the two that closed the last part.
SMILES	gsp antagonist	gsp agonist	PINK1 expr mod	D2 ag	ClpP mod	Sfp inh	Menin-MLL FL inh
O=C(O)CCCC(=O)Nc1ccc(N2CCCC2)cc1	-21%	-3%	-1.0%	5.1	-3.0%	10%	0.0
COc1ccc(OC)c(NS(=O)(=O)c2ccc3c(c2)n(C)c(=O)n3C)c1	-9%	3%	0.6%	1.6	0.5%	2%	0.4
CC1CCc2[nH]c3ccc(C(=O)NCCCOC(C)C)cc3c2C1 (stereo unspecified)	-14%	-16%	0.1%	-5.3	-9.6%	-2%	-5.1
CC(=O)c1cnc2c(-c3ccccc3)c(-c3ccccc3)nn2c1C	-9%	13%	0.3%	0.8	-1.1%	-23%	1.0
O=c1[nH]n(-c2ccccn2)c(=O)c2ccccc12	-2%	-12%	-1.6%	-3.4	-0.5%	-6%	-5.5
COc1ccc(NC(=O)CN(C)C(=O)c2cc(C3CC3)nn2-c2ccccc2)cc1	-4%	-8%	0.7%	1.1	0.6%	.	.
Cc1cc2ccccc2c(=O)n1CC(=O)NCC(=O)N1CCCC(C)C1 (stereo unspecified)	14%	14%	-3.5%	-2.6	?	-5%	2.1
O=C(Nc1cccnc1)c1noc2c1CCCC2	13%	-16%	0.1%[38.3 µM]	-0.7	-0.2%	-2%	5.2
CN(C)c1ccc(CNCCC2(O)CCOC(C)(C)C2)cc1 (stereo unspecified)	-6%	-6%	3.9%[38.3 µM]	2.8	-4.8%	-1%	1.2
O=C(Cc1ccc(NC(=O)C2CCCN(C(=O)C3CCCCC3)C2)cc1)Nc1ccc(C(=O)N2CCOCC2)cc1 (stereo unspecified)	1%	.	0.1%	-1.2	-1.5%	.	.
O=S(=O)(Nc1cc(S(=O)(=O)N2CCOCC2)ccc1O)c1ccc2c(c1)OCCCO2	-11%	-1%	0.1%	0.9	1.5%	.	.
CCOc1ccc(C(C(=O)NCC2CCCO2)N(Cc2ccccc2)C(=O)c2snc(C(N)=O)c2N)cc1 (stereo unspecified)	-5%	2%	-0.3%	5.4	.	15%	0.9
Cc1ccc2nc(/C(C#N)=C\c3ccc(N4CCCCC4)c([N+](=O)[O-])c3)[nH]c2c1	-11%	2%	7.5%[38.3 µM]	0.6	-2.4%	-8%	2.9
CCCC(=O)N1CCCC1(C)C(=O)NCc1ccc(SC)cc1 (stereo unspecified)	.	.	1.3%	-2.1	0.1%	.	.
Cc1cc(NC(=O)c2ocnc2C)no1	0%	-50%	-0.4%[38.3 µM]	-2.0	0.3%	9%	3.7
CCOc1ccc(C(=O)CN2C(=O)NC3(CCCCCC3)C2=O)cc1	3%	7%[15.4 µM]	6.9%	-4.9	.	.	.
Cc1ccc(NC(=O)CCNS(=O)(=O)c2cc(Br)cnc2N)cc1Cl	-23%	4%	12%	-3.4	-24%	3%	-0.4
CO/N=C/NC(=O)c1cn(-c2ccc(F)cc2)c(=O)c2ccccc12	3%	8%	-8.2%[38.3 µM]	-1.9	-15%	10%	9.2
Cc1ccccc1OCC(O)Cn1c(N2CCN(c3ccccc3)CC2)nc2c1c(=O)[nH]c(=O)n2C (stereo unspecified)	6%	-11%	6.7%	-4.6	-3.2%	-2%	1.9
Cc1ccc(S(=O)(=O)N2CCC(C(=O)NCCCN3CCCCCC3)CC2)cc1	11%	?	-1.1%[38.3 µM]	0.0	-0.2%	-2%	3.4
CC(C)(C)c1ccc(Oc2coc3cc(OCC(=O)O)ccc3c2=O)cc1	-4%	6%	-1.3%	0.8	.	19%	-1.4
CN(CCc1ccccc1)C(=O)c1ccc(NC(=O)Cc2cccc(NC(=O)C3CCN(C(=O)c4ccccc4)CC3)c2)cc1	1%	.	-0.9%	2.3	1.9%	.	.
COC(=O)[C@H](C)N1C/C=C\COc2c(Cl)cc(Cl)cc2S1(=O)=O	0%	.	2.2%	2.4	1.8%	.	.
NC1=NC(=O)C(Cc2cc(Cl)ccc2Cl)S1 (stereo unspecified)	-1%	-37%[inhibitor]	-2.5%	-3.1	0.0%	16%	46[activator]
COc1ccc(OCC(Cn2cnc3ccccc32)OC(C)=O)cc1 (stereo unspecified)	-7%	-6%[15.4 µM]	-0.7%	-1.1	.	15%	3.3
NC(=O)C1CC(=O)N(c2ccc(OCc3c(Cl)cccc3Cl)cc2)C1 (stereo unspecified)	-3%	11%	1.8%	4.2	1.2%	-26%	-0.8
CCOC(=O)c1c(NC(C)=O)no[n+]1[O-]	-1%	4%	-0.3%	-0.1	0.5%	-17%	2.8
CCC(=O)N1CCN(c2nc(C)nc3sc(C)c(C)c23)CC1	-2%	-13%	-0.1%[38.3 µM]	-1.8	-0.6%	2%	3.0
Cc1cc(C)nc(SCC(=O)Nc2ccnc3ccccc23)n1	?	-28%[15.4 µM]	0.1%	4.2	.	3%	0.4
O=C(Cc1ccc(NC2=NC3CS(=O)(=O)CC3S2)cc1)NCc1ccc(Cl)cc1 (stereo unspecified)	4%	-57%[inhibitor]	0.9%	-4.7	1.1%	16%	-4.7
C=CC[C@]12C=C(OC)C(=O)C(OC)=C1O[C@@H](c1ccc3c(c1)OCO3)[C@H]2C	2%	.	-0.5%	-3.9	0.6%	.	.
CC1CN(S(=O)(=O)c2cccc(C(F)(F)F)c2)C(C)N1C(=O)N1CCOCC1 (stereo unspecified)	3%	10%	1.4%	2.3	.	9%	-0.2
C=CCSc1nccc(-c2nn(-c3ccc(C)cc3)ccc2=O)n1	-5%	0%	5.7%	-7.5	0.1%	-2%	4.2
CCOC(=O)CCCNC(=O)COC(=O)c1cc(C)cc(C)c1	10%	-43%[inhibitor]	1.0%	-2.2	0.6%	5%	4.8
CN(C)C(CNC(=O)c1cccc(C(F)(F)F)c1)c1ccco1 (stereo unspecified)	6%	23%	2.5%	-5.3	.	12%	-2.5
CC1CCN(C(=O)COC(=O)c2cc3ccccc3oc2=O)CC1	4%	-6%	0.0%	-0.5	.	.	.
Cc1ccc(S(N)(=O)=O)c(C)c1-n1cnnn1	16%	-2%[15.4 µM]	0.1%	6.3	.	20%	2.4
CCCCNC1=C(Br)C(=O)CC(C)(C)C1	2%	-42%[inhibitor]	0.8%	-2.1	-2.3%	18%	6.2
CC(C)(C)n1nnnc1C(c1ccncc1)N(Cc1ccccc1)Cc1ccco1 (stereo unspecified)	-13%	-1%	-1.5%	1.3	-4.8%	50µM*	3.4
COc1ccccc1-n1cc(CN2CCCC(CO)(Cc3cccc(Cl)c3)C2)cn1 (stereo unspecified)	6%	-15%	-0.5%	-3.5	0.0%	4%	1.8
CCCC(=O)NCCc1nc2cc([N+](=O)[O-])ccc2n1C	10%	1%	1.6%	-3.7	0.3%	0%	8.1

This is a random part of the collection; overall some 5.1% were active at least once.
